Screening data: PubChem BioAssay, several laboratories
MT1-MMP promoter: MT1-MMP gene expression reporter suppression – cell-based, luciferase reporter, luminescence (AID 618). MT1-MMP promoter luciferase reporter cells, luminescence. calls from a first round at 10 µM; hits with a dose series show EC50 in µM. 0.62% of 87,000 active;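 active means over half of the reporter light lost at 10 µM or EC50 under 50 µM; inactive means the rest and hits that failed the dose series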;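 further: actives suppress MT1-MMP promoter-driven transcription so potencies describe inhibitors; HT1080 fibrosarcoma cells; overnight exposure; toxic or luciferase-blocking compounds were not removed from the actives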
Hsc70 ATP site: small molecules displacing fluorescent ligand from Hsc70 – biochemical, fluorescence polarization, primary screen (AID 568); Hsc70 fluorescence polarization, probe displacement; higher % means a stronger effect; strong numbers were not always called active; displacement, % at 20 µM, or IC50 in µM where a hit was titrated; 83,000 tested, under 10 active;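 active means displacement above 50% without optical interference and an IC50 on retest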;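 further: ATPase domain with a fluorescein-tagged ATP probe; 0% = vehicle and 100% = excess ADP; read after one hour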
WNV NS2B-NS3 inh: blocks West Nile virus NS2B-NS3 protease activity. P06935. WNV NS2B-NS3 protease, fluorogenic substrate Ex360/Em465; stronger effect = lower value. z-score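 (tested at a level between 10 and 100 µM)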. 0.18% of 65,000 active. AID 577;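 active means z-score at -3 or under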;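 further: score is relative to mean and spread of the compound wells of a plate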
Target sequence (P06935 1371-1501 limits assumed): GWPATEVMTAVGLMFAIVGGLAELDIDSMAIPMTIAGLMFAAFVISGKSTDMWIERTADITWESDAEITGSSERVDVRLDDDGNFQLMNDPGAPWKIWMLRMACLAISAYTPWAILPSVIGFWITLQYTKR
Target sequence (P06935 1502-1679 limits assumed): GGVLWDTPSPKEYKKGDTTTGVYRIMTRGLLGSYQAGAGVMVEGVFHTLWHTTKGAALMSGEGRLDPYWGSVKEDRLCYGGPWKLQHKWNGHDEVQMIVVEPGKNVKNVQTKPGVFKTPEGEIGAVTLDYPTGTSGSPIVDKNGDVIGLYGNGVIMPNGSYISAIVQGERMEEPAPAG
Active calls of the source: *; i = inactive; . = no result given. Some of the compounds tested, so the mix of outcomes need not match the whole.

SMILES	MT1-MMP promoter	Hsc70 ATP site	WNV NS2B-NS3 inh
COc1cccc(NC(=O)c2nn(C)cc2Br)c1	i	0.1%	.
COc1ccc(OC)c(C2C(C(C)=O)=C(O)C(=O)N2Cc2cccnc2)c1 (stereo unspecified)	i	3.5%	0.3
O=C(c1ccc2ccccc2c1)c1c[nH]cc1-c1ccccc1	i	3.1%	.
CC(=O)N1CC=C2C(C#N)=C(N)C(C#N)(C#N)C(C)C2C1 (stereo unspecified)	i	3.2%	-1.2
CCCN1CCN(C(=O)CCCNC(=O)Cn2cnc3sc(C)c(C)c3c2=O)CC1	i	-10%	1.1
CC(C)C(=O)Nc1cccc(-c2cn3ccsc3n2)c1	i	6.8%	0.59
CN(C)c1ccc(NC(=O)CN2CCN(CC(=O)Nc3ccc(F)cc3)CC2)cc1	i	3.2%	-0.25
O=C(CSc1n[nH]c(-c2cccnc2)n1)Nc1ccnc2ccccc12	i	-4.5%	1.9
CCOC(=O)CSc1nnc(C2CCCCC2)n1C	i	-2.1%	1.9
O=C(c1cnn2ccccc12)N1CCc2ccccc21	i	3.2%	-0.59
O=C(O)c1cccc2c1C(=O)N(C1CCCCC1)C2	i	-0.3%	0.69
CC(C)(C)C1CCc2onc(C(=O)Nc3ccc(F)cc3F)c2C1 (stereo unspecified)	i	0.9%	-0.96
COC(=O)CN(c1ccc(C)c(Cl)c1)S(C)(=O)=O	i	6.0%	0.92
CCCOc1ccc(C(CC(=O)O)NC(=O)C23CC4CC(CC(C4)C2)C3)cc1 (stereo unspecified)	i	2.4%	.
CCc1nnc(NC(=O)[C@@H](NC(=O)c2cccc(S(=O)(=O)N3CCOCC3)c2)C(C)C)s1	i	5.5%	.
CCOC(=O)NCc1ccc2c(c1)cc(C)n2C	i	8.3%	-1.6
Cc1cc(C)n(/N=C/c2cccc(O)c2)c(=O)c1C(N)=O	i	2.2%	2.6
COc1ccc(OC)c(NS(=O)(=O)c2cccs2)c1	i	6.9%	-6*
CCOc1ccc(-c2nnn(CC(=O)N3CCCC3)n2)cc1OCC	i	3.5%	.
COc1ccccc1-c1nnc(SCC(=O)Nc2ccc(Cl)cc2Cl)o1	i	-4.0%	0.81
CCNc1nc(N)nc(Oc2ccc(OCc3ccccc3)nn2)n1	i	-0.3%	.
O=C(NN=C1C2CC3CC(C2)CC1C3)c1cccs1	i	4.6%	.
CCCCCc1nc(N)c(C#N)c(-c2ccco2)c1CCCC	i	1.2%	.
COC(=O)Cn1cnc2sc(C)c(S(=O)(=O)N3CCN(c4ccccc4OC)CC3)c2c1=O	i	-7.4%	-0.46
COc1ccc(CCN(Cc2cc3cccc(C)c3[nH]c2=O)C(=O)N2CCCC2)cc1OC	i	-2.0%	0.53
CN(c1ccc(C(=O)N2CCN(Cc3ccc4c(c3)OCO4)CC2)cc1)S(=O)(=O)c1ccccc1	i	-4.0%	.
CN(C)c1ccc(C(c2nnnn2C(C)(C)C)N2CCN(C(=O)c3ccco3)CC2)cc1 (stereo unspecified)	i	-4.4%	1
COc1ccc2oc(=O)c(C(=O)N3CCN(c4ccccc4F)CC3)cc2c1	i	2.7%	0.53
CC(C)CCOC(=O)C1C(c2ccccc2)C(C(=O)O)C1c1ccccc1 (stereo unspecified)	i	6.8%	.
Cc1cc(=O)oc2n[nH]c(-c3ccccc3)c12	i	12%	0.92
Cc1cc(C)n(-c2nc3sc4c(c3c(=O)[nH]2)CCCC4)n1	i	-1.6%	.
CCOC(=O)N1CCN(C(=O)C(CC(C)C)NC(=O)C2CCCCC2)CC1 (stereo unspecified)	i	-0.1%	2.5
Cn1c(=O)c2c(ncn2CC(=O)N2CCN(c3cccc(Cl)c3)CC2)n(C)c1=O	i	12%	-0.58
O=C(COc1ccccc1)Nc1cccc2nsnc12	i	-8.6%	-0.35
COc1ccc(C(=O)Oc2ccc3oc(=O)sc3c2)cc1	i	6.3%	.
O=C(O)c1cc2c(ccc3ccccc32)o1	i	5.6%	-0.01
Cc1cccc(C)c1OC(=O)CSc1nnc(-c2ccccc2)o1	i	1.3%	.
CSCCC(NC(=O)c1cc(C)oc1C)C(=O)O (stereo unspecified)	i	4.6%	.
O=C(c1cccc(N2C(=O)C3CC=CCC3C2=O)c1)N1CCCCCC1 (stereo unspecified)	i	3.2%	0.36
COc1ccc(OC)c(-c2nnc(NC(=O)C(C)Sc3nncn3C)s2)c1 (stereo unspecified)	i	5.1%	0.33
Cc1oc(/N=C/c2c(O)ccc3ccccc23)c(C#N)c1C	i	-11%	0.53
O=C(O)C1[C@H]2C(=O)N(Cc3cccs3)C[C@]23C=C[C@H]1O3 (stereo partly specified)	i	3.4%	0.03
CCCNC(=O)CCC(=O)Nc1ncc(-c2ccc(C)cc2)n1C	i	-5.8%	-0.01
CCn1c(=O)c(C(=O)NC(C)C)c(O)c2ccccc21	i	-0.3%	.
COc1ccc2cc(C(=O)c3ccccc3)c(=O)oc2c1	i	-3.3%	.
OC(CNCCc1ccc(Cl)cc1)COCc1ccco1 (stereo unspecified)	i	-1.0%	-0.93
Cn1c(=O)[nH]c(=O)c2c1ncn2CCCc1ccccc1	i	-0.1%	0.64
COc1ccc(NC(=S)N2N=CCC2c2ccccc2)cc1 (stereo unspecified)	i	-14%	.
CC1CCN(S(=O)(=O)c2ccc(NC(=O)Cc3cccs3)cc2)CC1	i	-3.4%	.
CCCCNC(=O)Nc1ccccn1	i	-1.1%	.
Cc1noc(C)c1C(=O)OC(C(=O)NC1CCCC1)c1ccc(F)cc1 (stereo unspecified)	i	-3.5%	0.99
Cc1ccnn2c(-c3ccccc3)c3c(=O)n(C)c(=O)n(C)c3c12	i	-43%	0.28
Cc1ccccc1NC(=O)c1sc2nc3c(c(-c4ccco4)c2c1N)CCC3	i	3.0%	.
CC(C)COc1ccc(C(=O)OCCN2CCOCC2)c(O)c1	i	3.6%	0.13
COc1ccc(S(=O)(=O)N2CCCCCC2)cc1C(=O)OCC(=O)NC(N)=O	i	0.5%	0.78
CC1CN(Cc2nc3c(c(=O)n(C)c(=O)n3C)n2CCc2ccccc2)CC(C)O1 (stereo unspecified)	i	-7.0%	0.4
COCCCNC(=O)CCNS(=O)(=O)c1ccc(C)cc1	i	-6.4%	1.6
O=C(Cc1cccs1)N1CCN(c2ccccn2)CC1	i	2.0%	0.36
CCOc1ccc(NC(=O)C(C)Sc2nnnn2C)cc1 (stereo unspecified)	i	-1.0%	2.2
Cn1c(C(=O)NC2CC2)cc2c(=O)n(C)c3ccccc3c21	i	4.0%	-1.2

As entered above:
Hsc70 ATP site result of CCCCNC(=O)Nc1ccccn1 = -1.1%
Hsc70 ATP site result of COCCCNC(=O)CCNS(=O)(=O)c1ccc(C)cc1 = -6.4%

Among those listed so far, two have a tert-butyl group.
SMILES	MT1-MMP promoter	Hsc70 ATP site	WNV NS2B-NS3 inh
CC(C)(C)C1CCc2onc(C(=O)Nc3ccc(F)cc3F)c2C1 (stereo unspecified)	i	0.9%	-0.96
CN(C)c1ccc(C(c2nnnn2C(C)(C)C)N2CCN(C(=O)c3ccco3)CC2)cc1 (stereo unspecified)	i	-4.4%	1

Remaining list, next part.
SMILES	MT1-MMP promoter	Hsc70 ATP site	WNV NS2B-NS3 inh
CCOC(=O)Cc1cnc(NC(=O)NC(C(=O)OCC)(c2ccccc2)C(F)(F)F)s1 (stereo unspecified)	i	-0.3%	0.86
CCOC(=O)N1CCN(CCC(=O)Nc2ccc(Br)cc2)CC1	i	-1.5%	.
CCOC(=O)CCCNC(=O)CN1C(=O)NC(CCc2ccccc2)C1=O (stereo unspecified)	i	-4.0%	1.6
CCOc1cc(NC(=O)c2cccs2)c(OCC)cc1NC(=O)c1ccco1	i	-1.7%	.
Cc1ccccc1CSc1nnc(-c2ccco2)n1Cc1ccco1	i	-11%	0.53
COc1cc(NS(=O)(=O)c2ccc(NC(C)=O)cc2)ncn1	i	0.7%	.
O=C(O)c1cccn2c(=O)c3ccccc3nc12	i	-0.7%	-0.23
Cc1cc(C)c(OCC(=O)Nc2cccc(NC(=O)c3ccco3)c2)c(Br)c1	i	-28%	-0.43
Cc1ccccc1-c1nnc(SCC(=O)Nc2ccc(Cl)cc2)n1N	i	-5.4%	2.2
CCOC(=O)c1sc(NC(=O)CSc2n[nH]c(-c3ccncc3)n2)c(C#N)c1C	i	-12%	.
COc1ccc(-c2noc(CCC(=O)NCc3cccnc3)n2)cc1	i	0.8%	-0.32
COc1cccc(C(=O)N2CCSC2=S)c1	i	-0.9%	0.38
CCCCn1c(CN(Cc2ccccc2)Cc2ccccc2)nc2c1c(=O)n(C)c(=O)n2C	i	2.2%	-0.33
CCCC(=O)c1ccc(N2CCCCCC2)c(F)c1	i	-4.9%	-0.64
Nc1nc2ccccc2n1C(=O)CCc1ccccc1	i	3.2%	-0.19
Cc1c(C(=O)N2CCOCC2)oc2ccc(S(=O)(=O)N3CCCCCC3)cc12	i	6.1%	-1.4
OCCNc1ncnc2ccc(Br)cc12	i	-3.7%	1.7
CC1C(=O)CC(c2ccccc2)N(C)C1c1ccccc1 (stereo unspecified)	i	1.6%	0.53
CS(=O)(=O)Nc1ccc(S(=O)(=O)NCCc2ccccc2)cc1	i	-2.8%	-1.1
Cc1ccc(C(=O)N/C(N)=N/c2nc3ccccc3o2)cc1	i	-3.5%	.
CS(=O)(=O)C1=C(O)C(=O)N(CCCC(=O)O)C1c1ccccc1F (stereo unspecified)	i	-6.2%	2.2
c1ccc(Cc2nnc(N3CCOCC3)c3ccccc23)cc1	i	-4.8%	.
CCCCN(CC)c1nc(N)c2c(N)nc(OCC)cc2c1C#N	i	2.5%	.
c1cc2cn[nH]c2cc1NC1CCCCCC1	i	-4.9%	0.18
CCCc1noc2c1/C(=N\O)CC(CC(C)SCC)C2 (stereo unspecified)	i	2.9%	-1.1
COc1ccc(OC)c(NC(=O)c2[nH]c(C)c(C(C)=O)c2C)c1	i	-5.7%	0.83
O=C(NCCN1CCOCC1)C1CCC(=O)N1Cc1ccccc1Cl (stereo unspecified)	i	-5.0%	-0.68
CCOC(=O)C1=C(N)Oc2cc(C)[nH]c(=O)c2C1c1ccncc1 (stereo unspecified)	i	-4.7%	-1
CC1CN(S(=O)(=O)c2ccccc2)CC(C)O1 (stereo unspecified)	i	-2.1%	-0.24
Cc1ccc(C)c(-n2c(Cc3cc(=O)[nH]c(=O)[nH]3)nnc2SCC(=O)NCc2ccco2)c1	i	3.8%	0.68
Nn1c(SCC(=O)NC2CCCCC2)nnc1-c1ccccc1	i	-9.5%	-0.3
Cc1ccc(-c2c3c(=O)n(C)c(=O)n(C)c3cn2Cc2cccnc2)cc1	i	7.0%	0.28
COc1ccc(C/C(O)=C(\C#N)c2nc3ccccc3s2)cc1	i	-3.1%	0.14
Cc1cccc(OCC(=O)Nc2ccc(S(=O)(=O)N3CCCC3)cc2)c1	i	3.9%	2
O=C(Nc1ccc(S(=O)(=O)N2CCOCC2)cc1)c1ccco1	i	-4.7%	-1.5
COc1ccc2[nH]c(=O)c3c(c2c1)OC(C)(C)C=C3	i	-8.8%	-1.1
O=C(COC(=O)C1=COCCO1)Nc1ccccc1Oc1ccccc1	i	-8.2%	0.63
Cc1ccc(S(=O)(=O)Nc2cc(C)nn2-c2ccccc2)cc1	i	-3.8%	-0.72
CC(C)(C)C1CC=C2C(C#N)=C(N)C(C#N)(C#N)C(c3cccs3)C2C1 (stereo unspecified)	i	5.1%	.
CCC(CO)N=CC1=C(O)CC(C)(C)CC1=O (stereo unspecified)	i	-1.9%	-0.04
CC1=C(C(=O)NCCN2CCOCC2)C2(CCC(C)CC2)OC1=O (stereo unspecified)	i	3.9%	-2.2
O=C(Cn1ncc2c1-c1ccccc1OC2)N(Cc1ccco1)C1CCCCC1	i	-1.0%	-1
CCc1nnc(NC(=O)c2ccc(N(C)S(=O)(=O)c3ccccc3)cc2)s1	i	2.4%	0.06
C=C(C)COc1ccc(-c2n[nH]c(C)c2-c2ccccc2OC)c(O)c1	i	-2.1%	0.16
CCOC(=O)N1CCC(Nc2c(NCCN3CCN(c4cccc(Cl)c4)CC3)c(=O)c2=O)CC1	i	1.5%	0.39
COc1ccccc1CNC(=O)c1ccc(S(=O)(=O)N2CCCC2)cc1	i	-6.5%	-1
COc1ccc(C(=O)OCC(=O)c2cc(OC)ccc2OC)c(OC)c1	i	-5.0%	-0.77
CCC(CC)C(=O)Nc1c2c(nn1-c1ccc(OC)cc1)CS(=O)(=O)C2	i	6.1%	-0.84
CCc1nc(OCC(=O)c2ccccc2)c(C#N)c2c1COC(C)(C)C2	i	-3.7%	.

Part of the list above in order of SMILES length, ascending:
SMILES	MT1-MMP promoter	Hsc70 ATP site	WNV NS2B-NS3 inh
CCC(CO)N=CC1=C(O)CC(C)(C)CC1=O (stereo unspecified)	i	-1.9%	-0.04
CC1=C(C(=O)NCCN2CCOCC2)C2(CCC(C)CC2)OC1=O (stereo unspecified)	i	3.9%	-2.2
COc1ccc(C(=O)OCC(=O)c2cc(OC)ccc2OC)c(OC)c1	i	-5.0%	-0.77
COc1ccccc1CNC(=O)c1ccc(S(=O)(=O)N2CCCC2)cc1	i	-6.5%	-1
O=C(Cn1ncc2c1-c1ccccc1OC2)N(Cc1ccco1)C1CCCCC1	i	-1.0%	-1
CCc1nnc(NC(=O)c2ccc(N(C)S(=O)(=O)c3ccccc3)cc2)s1	i	2.4%	0.06
CCOC(=O)N1CCC(Nc2c(NCCN3CCN(c4cccc(Cl)c4)CC3)c(=O)c2=O)CC1	i	1.5%	0.39

Quoted at random: two entries already listed.
SMILES	MT1-MMP promoter	Hsc70 ATP site	WNV NS2B-NS3 inh
Nc1nc2ccccc2n1C(=O)CCc1ccccc1	i	3.2%	-0.19
Cc1ccc(S(=O)(=O)Nc2cc(C)nn2-c2ccccc2)cc1	i	-3.8%	-0.72
